StopGo reporter = lowers the luciferase signal of an FMDV 2A StopGo reporter; human cells with a luciferase reporter of 2A StopGo recoding; control for the full effect not named in the record; Potency, µM (highest dose often 57.9 µM), without a hit: at the highest dose signal change, negative = less light; hit rate 1.2% among 410,000; AID 1159524; active = well fitted falling curve with a large enough effect; inconclusive = small, poorly fitted or top-dose-only effect; inactive = no such curve, though single readings can be large or run the other way; tested in HEK293T cells; also: % is scaled to controls: 0 for no effect and ±100 for the full control effect; nearly all actives have a fitted effect of over 45% in size; luciferase light after 4 h
LASV entry inh = inhibitors of Lassa virus binding or cell entry; Lassa virus pseudotype entry inhibition, cell reporter; control for the full effect not named in the record; hit rate 1.2% among 300,000; Potency, µM (doses to about 37.9 µM), for inactives: at the highest dose activity change, negative = inhibition, most hits filed as inhibitors; active means well fitted inhibition curve with a large enough effect; inconclusive means small, poorly fitted or top-dose-only effect, or effect the other way; inactive means flat fitted curve, though single readings scatter; tested in HEK293 cells; also: % is scaled to controls: 0 for no effect and ±100 for the full control effect; nearly all actives have a fitted effect of over 50% in size; luciferase read-out
Cruzain noTriton = cruzain (T. cruzi) inhibition without detergent; P25779; purified cruzain, Z-FR-AMC fluorescence, no detergent; Potency, µM, for inactives: max response, negative = inhibition, hits mostly inhibitors; hit rate 2.3% among 200,000;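 also: plate controls were enzyme without inhibitor for no effect and buffer without enzyme for full effect; nearly all actives have a fitted effect of over 40% in size; top concentration of the series not given in the record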
Target sequence (P25779 123-467 limits assumed): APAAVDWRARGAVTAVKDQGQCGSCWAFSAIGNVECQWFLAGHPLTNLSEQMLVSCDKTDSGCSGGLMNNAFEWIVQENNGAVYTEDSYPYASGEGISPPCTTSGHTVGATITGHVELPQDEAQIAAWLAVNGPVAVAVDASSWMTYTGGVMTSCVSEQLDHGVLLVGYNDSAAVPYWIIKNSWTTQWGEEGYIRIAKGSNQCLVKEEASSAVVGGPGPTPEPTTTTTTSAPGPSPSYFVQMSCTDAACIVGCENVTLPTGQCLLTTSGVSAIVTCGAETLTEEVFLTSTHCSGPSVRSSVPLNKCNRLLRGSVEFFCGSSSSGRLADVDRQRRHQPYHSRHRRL
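Purified cruzain at 1.5 nM, pre-incubated 15 min with compound at room temperature in 100 mM sodium acetate pH 5.5, 5 mM DTT, 0.00005% Triton X-100. Reaction started with 2 uM Z-FR-AMC; AMC fluorescence increase over 60 s gives rate.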
SARS PLpro yeast = SARS-CoV PLP inhibition in yeast. S. cerevisiae expressing SARS-CoV PLpro, growth rescue; control for the full effect not named in the record. Potency, µM (series often up to 32.9 µM), for inactives: at the highest dose activity, positive = growth rescue. hit rate 0.19% among 330,000. AID 485353; active means well fitted rising curve with a large enough effect; inconclusive means small, poorly fitted or top-dose-only effect; inactive means no such curve, though single readings can be large or run the other way; also: 0% is about no effect; nearly all actives have a fitted effect of over 55% in size; growth read by luminescence after 48 h
NS1 function inh = influenza NS1 inhibition; S. cerevisiae slowed by influenza A NS1, growth recovery by OD600; Potency, µM (series often up to 46.1 µM), without a hit: top-dose activity, positive = more growth; hit rate 0.4% among 270,000; active means well fitted rising curve with a large enough effect; inconclusive means small, poorly fitted or top-dose-only effect; inactive means no such curve, though single readings can be large or run the other way; also: nearly all actives have a fitted effect of over 50% in size
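Growth recovery, yeast-based: influenza A NS1 expressed in S. cerevisiae causes slow growth, and suppressors are detected by OD600. The parent strain without NS1 is used as positive control.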
Marburg entry inh = blocks Marburg virus binding to or entry into cells | Marburg virus pseudotyped entry inhibition, cell reporter; control for the full effect not named in the record; about a third of the inactives were read at about 46 µM | Potency, µM (doses to about 37.8 µM), inactives show at the highest dose activity change, negative = inhibition, usual class: inhibitors | hit rate 1.8% among 300,000 | AID 540276; active = well fitted inhibition curve with a large enough effect; inconclusive = small, poorly fitted or top-dose-only effect, or effect the other way; inactive = flat fitted curve, though single readings scatter; tested in HEK293 cells; about a fifth of its hits are not listed in these tables; also: % is scaled to controls: 0 for no effect and ±100 for the full control effect; luciferase read-out
Cruzain inh Det = cruzain (T. cruzi) inhibition with detergent; purified cruzain, Z-FR-AMC fluorescence, 0.01% Triton; Potency, µM, for the others: max response, negative = inhibition, hits mostly inhibitors; hit rate 0.43% among 200,000; AID 1478;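 also: plate controls were neutral wells for no effect and buffer without enzyme for full effect; nearly all actives have a fitted effect of over 40% in size; top concentration of the series not given in the record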
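Read-out: AMC fluorescence (360 nm excitation, 450 nm emission), four reads over 2 min, first-to-third difference used. Conditions: cruzain 1.5 nM, Z-FR-AMC 2 uM, pH 5.5 acetate, 5 mM DTT, 0.01% Triton X-100.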
RE007 growth inh = less growth of the S. pombe RE007 Vpr strain; Potency, µM (doses to about 92.2 µM), for inactives: at the highest dose activity change, negative = less growth; AID 651644; hit rate 0.21% among 360,000; S. pombe RE007 Vpr strain, BacTiter-Glo ATP luminescence, 24 h; control for the full effect not named in the record; active = well fitted falling curve with a large enough effect; inconclusive = small, poorly fitted or top-dose-only effect; inactive = no such curve, though single readings can be large or run the other way;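 also: % is scaled to controls: 0 for no effect and ±100 for the full control effect; nearly all actives have a fitted effect of over 50% in size; the assay follows cell death caused by Vpr and the record does not say whether a fall means rescue or toxicity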
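Fission yeast RE007 carrying one integrated HIV-1 vpr copy, seeded at OD 0.01 in PMG+AL medium with 23 nL pinned compound. Grown 24 h at 30 degrees; viability read by BacTiter-Glo luminescence after 5 min.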
* hit, by the source's call; u = inconclusive; x = no result given; & = joins results of further samples; [ ] = remark or other dose. Unless noted, calls follow the shape of the dose curve; as a rule, active = well fitted curve in the direction sought with a large enough effect; inconclusive = small, poorly fitted or top-dose-only effect, or another doubt; inactive = no such curve, though single readings can be large; an effect the other way counts as inactive or inconclusive. Potency is read from the fitted curve at half-maximal effect.

SMILES | StopGo reporter | LASV entry inh | Cruzain noTriton | SARS PLpro yeast | NS1 function inh | Marburg entry inh | Cruzain inh Det | RE007 growth inh
Clc1ccccc1-c1nnc(-c2ccccc2CNc2ccc(Br)cc2)o1 | 14% | 23%[46.1 µM] | -5% | x | x | -11%[46.1 µM] | -5.6% | x
CCC(C)NC(=O)COc1ccc(Br)c(C)c1 (stereo not given) | -3% | 7% | -3% | 4%[6.58 µM] | -7% | 12% | 0.7% | u
COCCCn1c(=O)c2sccc2n(Cc2cccc(F)c2)c1=O | -22% | u | x | 3% | 21% | -1% | x | 6%
CCOc1ccc(/C=C(\C(=O)O)c2ccc(S(=O)(=O)N3CCOCC3)s2)cc1OC | -4% | u | 2% | 15% | 8% | 13% | -10% | 12%
CC(C)CCNC(=O)C1CCN(C(=O)c2cc3sccc3n2Cc2ccc(Cl)cc2)CC1 | u | x | 23% | x | x | u | -6.3% | x
COc1ccc(CC(=O)Nc2cc(=O)n(C)c(=O)n2C)cc1 | 6% | x | -7% | 11% | 1% | x | -1.5% | 3%
COc1ccc(-c2c(C)c3ccc(O)c(CN4CCN(CCO)CC4)c3oc2=O)cc1OC | -19% | -16%[46.1 µM] | -16% | x | x | x | -3.0% | x
CCOc1ccc(/C=C(/NC(=O)c2ccccc2Cl)C(=O)O)cc1 | -8% | -27% | x | 0% | 2% | 14%[46.1 µM] | x | 3%
C=CCn1c(SCC(=O)NCc2cccs2)nnc1C1CCCCC1 | 2% | -9% | 17% | 4% | -48% | -16% | 0.1% | 2%
CC(C)CC(=O)NC(NC(=S)Nc1ccccc1)C(Cl)(Cl)Cl (stereo not given) | -4% | x | x | -4% | -1% | u | x | -18%
Cc1c(NC(=O)C(C)Oc2ccccc2F)c(=O)n(-c2ccccc2)n1C (stereo not given) | -6% | 7%[46.1 µM] | x | 3% | 3% | 2%[46.1 µM] | x | -18%
Cc1ccc(-n2c(SCC(=O)Nc3cc(C)on3)nc3c([nH]c4ccccc43)c2=O)cc1 | -8% | x | 0% | 1% | 15% | 2% | 0.4% | 4%
CC(=O)C1=C(c2ccccc2)NC(=O)NC1c1ccccc1OCC#N (stereo not given) | x | u | -1% | 7% | -20% | 8% | -4.2% | 4%
COc1cc(S(=O)(=O)N2CCCCCC2)ccc1Cl | 27% | 2% | 0% | -4% | -11% | -10%[46.1 µM] | -1.9% | -22%
O=C(Nc1ccccc1)c1ccc(NCCc2ccccc2)c([N+](=O)[O-])c1 | -6% | 10% | u | 4% | 3% | 9% | -5.4% | -8%
COc1ccc(OC)c(/C=N/NC(=O)CC2C(=O)NN=C2C)c1 (stereo not given) | 6% | -9% | 32µM* | -10% | -2% | 0% | -28% | -1%
NC(C(=O)O)C(c1ccccc1)C(F)F (stereo not given) | -5% | x | x | -1% | 1% | x | x | -8%
Cc1cc(C)c(S(=O)(=O)N(CC(=O)N2CCOCC2)C2CCCCC2)c(C)c1 | 38% | -11% | u | u | -18% | 5% | 3.1% | 7%
COc1ccc(C(O)(c2ccccc2OC)C(CN2CCOCC2)c2ccccc2)cc1 (stereo not given) | -26% | x | x | -1% | x | 11µM* | x | 1%
O=C(Nc1nncs1)c1cccc(S(=O)(=O)N2CCCC2)c1 | -4% | 0% | -1% | -1% | 1% | 20% | 2.6% | -2%
CCOC(=O)N1CCN(C(=O)C2CCC(CNS(=O)(=O)c3ccccc3)CC2)CC1 (stereo not given) | -20% | 0% | 27% | -3% | -2% | -20% | -1.0% | 1%
Cn1c(=O)[nH]c(=O)c2c1nc(NCCN)n2CCOc1ccccc1 | -17% | 2% | x | 5% | u | 3% | x | -21%
CCC(=O)Nc1ccc(NC(=O)CSc2nc3cc4c(cc3cc2C)CCC4)cc1 | x | u | 25µM* | -6% | -1% | u | 5.7% | 9%
CCc1ccc(NC(=O)Cn2c(=O)oc3cc(S(=O)(=O)NCc4ccccc4)ccc32)cc1 | 12% | x | u | x | x | u | -3.5% | x
COc1ccc(-n2c(O)c(/C=N/NS(=O)(=O)c3cc(C)ccc3C)c3ccccc3c2=O)cc1OC | -17% | -12% | u | -5% | 28% | u | -11% | -24%
Cc1ccc(C)n1-c1nnc(N2CCCC(C(=O)NCc3ccc(F)cc3)C2)s1 (stereo not given) | 0% | 0%[46.1 µM] | 2% | x | x | -30%[46.1 µM] | -7.6% | x
COc1ccccc1C(=O)Nc1ccc(C(=O)OCc2cc(=O)n3c4c(sc3n2)CCCC4)cc1 | -18% | -1%[46.1 µM] | -8% | x | x | x | 0.8% | x
CC(C)c1ccc(Nc2nnc(SC3CCOC3=O)s2)cc1 (stereo not given) | 14% | -3% | 10% | -2% | 17% | -26% | -3.9% | 0%
Cc1nc(C(F)(F)F)c(C(=O)N/N=C(\N)c2ccccn2)s1 | 3% | u | x | -2% | x | u | x | 4%
COCCn1nnnc1SCC(=O)Nc1ccc2c(c1)OCO2 | 7% | x | x | 1% | 1% | x | x | 10%
Cc1nc2nc(SCC(=O)NCCc3ccc(Cl)cc3)nn2c(C)c1Cc1c(F)cccc1Cl | -13% | 19%[46.1 µM] | -11% | x | x | x | 2.1% | x
COc1cccc(CNc2ncnc3onc(-c4ccc(F)cc4)c23)c1 | -23% | 4%[46.1 µM] | 4% | x | x | x | -1.3% | x
Cc1ccc(-c2nnc(CN3CCCCC3C)o2)cc1 (stereo not given) | 11% | x | x | -2% | 0% | x | x | -2%
C#CC(C)(C)NC(=O)CSc1nc2c(c(=O)n(C)c(=O)n2C)n1CCCC | -26% | x | -6% | 0% | u | x | -0.5% | 3%
CCN(CCNC(=O)CS(=O)(=O)Cc1nc(-c2cccc(OC)c2)oc1C)c1ccccc1 | -5% | 1% | u | -17% | -39% | 2%&2% | -2.1% | 6%
CNS(=O)(=O)c1cccc(C(=O)OCC(=O)NCc2ccccc2)c1 | 0% | 2% | 1% | 4% | 8% | 17% | 6.4% | -17%
COc1ccc(N(CC(=O)NCCc2ccc(OC)c(OC)c2)S(=O)(=O)c2ccc(OC)c(OC)c2)cc1 | -7% | -21% | x | 13% | -7% | u | x | 5%
COc1cccc(C(=O)Nc2ccc(N3CCN(C(=O)c4ccco4)CC3)cc2)c1 | -24% | -29% | x | -2% | -3% | 4%[46.1 µM] | x | 16%
COc1ccc(NC(=O)CC2C(=O)N(c3ccccc3)C(=O)N2Cc2cccnc2)cc1 (stereo not given) | -10% | 0%[46.1 µM] | -11% | x | x | x | -0.9% | x
CC1=C(C(=O)OC2CCCC(C)C2)C(c2ccccc2)NC(=O)N1 (stereo not given) | -17% | x | x | 1% | u | x | x | 20%
COc1cccc(CN2CCNC(=O)C2CC(=O)NCCOc2cccnc2)c1OC (stereo not given) | 2% | x | x | 1% | 0% | x | x | -12%
O=C(O)CNS(=O)(=O)c1cccc(Cl)c1 | 9% | x | x | -1% | 5% | x | x | -4%
O=C(NCCc1c[nH]c2ccccc12)Nc1cccc2ccccc12 | u | -22% | -9% | 4% | -3% | u | -3.3% | -6%
CC1=NN(c2cccc([N+](=O)[O-])c2)C(=O)C1 | 5% | 4% | x | 1% | 5% | 6%[46.1 µM] | x | u
CC(=O)c1ccc(NC(=O)CSc2nc(-c3cccc(F)c3)nc3c2c(=O)n(C)c(=O)n3C)cc1 | 6% | -2%[46.1 µM] | -1% | x | x | x | 2.8% | x
CC(C)N(C(=O)NC(=O)NCC1CCCO1)S(C)(=O)=O (stereo not given) | x | 14% | -3% | 5% | -3% | -5% | -0.6% | 2%
COc1ccc(OCCCC(=O)Nc2nnc(C3CCCO3)s2)cc1 (stereo not given) | 0% | -7% | -11% | 1% | -5% | 15% | 1.5% | -2%
COc1cccc(-n2c(CN3CCN(c4ccc(C)cc4)C(C)C3)nc3ccc([N+](=O)[O-])cc3c2=O)c1 (stereo not given) | -23% | u | 8% | -17% | 17% | -15% | -5.3% | -3%
COc1ccc(Nc2ccc(S(=O)(=O)N3CCCCC3)cc2[N+](=O)[O-])cc1 | u | -25% | -10% | 5% | 2% | -8% | -4.4% | 3%
C=C(C)C(=O)Nc1ccc(OC(F)(F)C(F)F)c(NC(=O)C(=C)C)c1 | 9% | 3% | -2% | -2% | -1% | -6%[46.1 µM] | 1.8% | -4%
Cc1cccc(NC(=O)c2cccnc2)c1 | 0% | 15% | -4% | 10% | -19% | 29% | 3.4% | 3%
Cc1ccccc1OCC(=O)NNC(=O)CCN1C(=O)c2ccccc2C1=O | -4% | 5%[46.1 µM] | x | -2% | x | u | x | 9%
COc1ccc2[nH]cc(CCN=C3SCC(=O)N3C)c2c1 | 28% | -1% | -8% | 6% | 5% | 0% | 4.8% | 9%
O=C(Cc1ccccc1)NC(CSSCC(NC(=O)Cc1ccccc1)C(=O)O)C(=O)O (stereo not given) | 23% | 9%[46.1 µM] | x | x | x | u | x | -4%
Cc1cc(-c2ccc(C)c(S(=O)(=O)NC(C)Cc3ccco3)c2)on1 (stereo not given) | 45%[activator] | x | x | 8% | -17% | x | x | -6%
Cc1ccc(/C=N/NC(=O)CN2CCN(S(=O)(=O)c3ccc(Br)cc3)CC2)s1 | -29% | 0% | 4% | -12% | -15% | -20% | -4.7% | 20%
Cc1ccc(C2NC(=O)c3c(sc(C)c3C)N2)c(O)c1 (stereo not given) | x | 28% | -29% | -5% | -15% | 12% | -1.7% | 0%
CC1CCc2nn(CC(=O)NCCN3CCOCC3)cc2C1 (stereo not given) | -14% | x | 12% | 2% | 4% | x | 8.0% | -6%
Cc1c(NC(=O)COc2cccc(Cl)c2Cl)c(=O)n(-c2ccccc2)n1C | -17% | 17% | x | -2% | x | 11% | x | 9%
C=CCN(N=Nc1cccc([N+](=O)[O-])c1)c1cccc([N+](=O)[O-])c1 | x | -20% | -8% | 5% | 3% | -7% | 0.0% | -5%
CCC(C#N)(CC)P(=S)(c1ccccc1)c1ccccc1 | -11% | -4% | 9% | -34% | -4% | 3% | -2.7% | 12%

Not a hit list; overall some 4.6% were active at least once.
